# D2 ag: human D2 receptor agonism in beta-arrestin assay | AID 624465 | DiscoveRx PathHunter D2 beta-arrestin, luminescence, 90 min; 100% = 57 uM dopamine signal | 360,000 compounds, 0.084% hits | activation, % (no concentration beside the values); in the data active = activation above about 40%; inconclusive = about 15% to 40%; inactive = below about 15%; further: compound concentration not given in the record; the text of the record calls up to 30% inactive
#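 Agonist mode: compounds alone added to overnight-plated D2 PathHunter cells for 90 min at 37 C, with 57 uM final dopamine (EC100) defining full response. Beta-arrestin recruitment detected by chemiluminescent reagent, read after 1 h at ambient temperature.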
# Six1-Eya2 inh: Six1/Eya2 interaction inhibition; AlphaScreen GST-Six1/His-Eya2 binding, biochemical; stronger effect = lower value; control for the full effect not named in the record; 360,000 compounds, 0.56% hits; AID 651725; activity change, % (concentration not given with the values); in the data active = activity change below about -65%; inconclusive = about -30% to -65%; inactive = above about -30%; further: on the % scale 0 is the no-effect control and ±100 the full control effect
# Target sequence (O00167 whole entry, looked up): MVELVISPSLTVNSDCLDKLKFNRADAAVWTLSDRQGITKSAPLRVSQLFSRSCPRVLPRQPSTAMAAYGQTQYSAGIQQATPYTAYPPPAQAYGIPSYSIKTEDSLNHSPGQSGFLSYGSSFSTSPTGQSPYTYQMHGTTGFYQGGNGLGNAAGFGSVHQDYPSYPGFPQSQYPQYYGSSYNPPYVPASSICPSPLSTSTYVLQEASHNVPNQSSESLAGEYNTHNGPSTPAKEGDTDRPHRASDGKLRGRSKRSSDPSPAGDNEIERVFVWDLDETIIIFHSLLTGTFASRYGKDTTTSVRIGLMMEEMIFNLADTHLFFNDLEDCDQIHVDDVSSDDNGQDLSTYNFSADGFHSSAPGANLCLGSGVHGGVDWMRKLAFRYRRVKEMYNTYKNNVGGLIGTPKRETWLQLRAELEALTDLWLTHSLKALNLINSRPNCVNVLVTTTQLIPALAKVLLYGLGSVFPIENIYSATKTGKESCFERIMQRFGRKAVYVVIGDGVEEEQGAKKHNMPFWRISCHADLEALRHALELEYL
# Target sequence (Q15475 whole entry, looked up): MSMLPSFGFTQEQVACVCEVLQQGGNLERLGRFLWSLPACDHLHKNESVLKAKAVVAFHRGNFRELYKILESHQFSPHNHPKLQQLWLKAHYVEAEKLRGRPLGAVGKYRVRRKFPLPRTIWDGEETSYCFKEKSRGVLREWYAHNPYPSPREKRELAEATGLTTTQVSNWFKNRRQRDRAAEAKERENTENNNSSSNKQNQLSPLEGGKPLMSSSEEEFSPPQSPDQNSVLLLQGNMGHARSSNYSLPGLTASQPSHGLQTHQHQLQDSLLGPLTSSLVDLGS
#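 GST-Six1 + His-Eya2 (5X stock: 250/500 nM); Tris pH 8.0, 300 mM NaCl, 0.05% BSA, 0.02% Tween 20; GSH donor/Ni acceptor beads; 1 h 37 °C dark; AlphaScreen readout.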
# CtBP-E1A blk: CtBP/E1A binding inhibition; AlphaScreen GST-E1A/His-CtBP binding, 1536-well; stronger effect = lower value; control for the full effect not named in the record; activity change, % (concentration not given with the values); 340,000 compounds, 0.49% hits; AID 651724; in the data active means activity change below about -65%; inconclusive means about -30% to -65%; inactive means above about -30%; further: on the % scale 0 is the no-effect control and ±100 the full control effect
#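 Steps: dispense buffer (Tris pH 8.0, NaCl 300 mM, TCEP 1 mM, BSA, Tween 20); add 5X protein mix (GST-E1A, His-CtBP, 125 nM each); pin 23 nL compound; 2 h at 37 °C, dark; add 5X beads (50 ug/mL); 1 h; read.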
# TRPML1 agonist: agonists of human TRPML1 channel; Q9GZU1; TRPML1-expressing cells, Ca2+ dye fluorescence, FDSS; host cell line not named in the record; reference of the full effect not given here; activation, % (concentration not given with the values); 410,000 compounds, 0.12% hits; AID 624414; in the data active = activation above about 50%; inconclusive = about 30% to 50%; inactive = below about 30%; further: 0% is about no effect; the text of the record puts the active cut at 80%
#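 Cells: TRPML1-DL, 1X Tet inducer, ~16 h at 37 degrees C/5% CO2. Dye: ABD Ca8 no-wash + quencher, 45-90 min RT. Read: 10 s baseline, compound add, 110 s agonist phase; 54-4 EC80 (4uM final), 110 s antagonist phase.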
# PINK1 expr mod: modulators of PINK1 expression; PINK1 immunofluorescence, high-content cytometry, 24 h; Potency, µM (highest dose often 76.6 µM), inactives show at the top dose activation (PINK1 increase), most hits filed as activators; 410,000 compounds, 0.2% hits; active = well fitted activation curve with a large enough effect; inconclusive = small, poorly fitted or top-dose-only effect; inactive = flat fitted curve, though single readings scatter; cell line not stated here;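 further: potency means the concentration at half of the fitted maximal effect; % of control where 0% means no effect; nearly all actives have a fitted effect of over 65% in size; a mitochondrial uncoupler was the plate control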
#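 PINK1 protein, normally rapidly degraded, was detected by immunofluorescence after 24 hour compound treatment of a stable cell line. Titration data (5 concentrations) came from laser-scanning cytometry, with CCCP-treated wells as controls.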
# D2 potentiator: potentiates the human D2 dopamine receptor allosterically; P14416; DiscoveRx D2 beta-arrestin cells, luminescence, 90 min; 100% = 57 uM dopamine signal; 360,000 compounds, 0.23% hits; potentiation, % (concentration not given with the values); active = potentiation of 50% or more; inconclusive = 30% to 50%; inactive = 30% or less;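 further: tested on top of an EC20 dose of dopamine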
#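 PathHunter beta-arrestin assay in DiscoveRx D2 cells. Compounds were added with an EC20 of dopamine (50 nM final) for 90 min at 37 deg C. Luminescence was read 1 h after detection reagent, with 57 uM dopamine as the EC100 control.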
# Numbers without * were called inactive; ? = inconclusive; · = no result given; & = joins results of further samples; [ ] = dose if it differs, or a comment.
# Below each compound: D2 ag, Six1-Eya2 inh, CtBP-E1A blk, TRPML1 agonist, PINK1 expr mod, D2 potentiator
- Cc1cc(NC(=O)COc2ncnc3sc(C)c(C)c23)no1
→ -4.0, 0, 3, 0.0, 0.6%, -27
- CCOc1ccc(N2CC(C(=O)Nc3nnc(Cc4ccccc4)s3)CC2=O)cc1 (configuration not stated)
→ 0.9, 2, -11, -0.3, 1.2%, -1
- COc1ccc(CCNC(=O)CCc2cn(C)c3ccccc23)c(OC)c1
→ -3.7, -16, -8, 0.6, 2.9%, -2
- COc1cccc(CNC(=O)c2ccc(CS(=O)(=O)Cc3ccccc3C)o2)c1
→ -1.2, 17, 0, 0.1, -0.9%, 4
- O=C(CN(c1ccc([N+](=O)[O-])cc1)S(=O)(=O)c1ccccc1)N1CCCCC1
→ -1.2, 8, -2, 7.4, -0.5%, -8
- CC1(C)CC(=O)C=C(Nc2ccc(F)cc2)C1
→ -1.7, 4, -3, 0.4, 1.5%[38.3 µM], -3
- COc1cc(C(=O)N(CCc2ccccc2)C2CC3CCC(C2)N3C)cc(OC)c1OC (configuration not stated)
→ -4.6, 6, 11, 0.7, -1.8%, -15
- COCc1cc(C)nc(SCc2ccc([N+](=O)[O-])cc2)c1C#N
→ -0.7, -9, -6, 2.0, -1.2%, 3
- CCOC(=O)c1ccc(-c2ccc(C3Nc4ccccc4C(=O)N3O)o2)cc1 (configuration not stated)
→ -1.2, 0, 2, -0.3, 0.7%, -3
- O=C(Nc1cccc(Cl)c1N1CCOCC1)c1ccc([N+](=O)[O-])o1
→ 1.3, 6, 6, -0.5, 1.0%, 0
- COc1ccc(CCCC(=O)NCc2ccccc2)cc1C
→ -2.2, 3, 7, 2.4, 8.8%, -13
- CC(C)[C@H](NC(=O)c1ccccc1)C(=O)OCC(=O)NCc1ccc2c(c1)OCO2
→ -2.9, 24, -18, -0.5, -1.1%, -14
- CCc1c(O)nc(SCC(=O)Nc2ccc(C)cc2)n(C2CCCCC2)c1=O
→ 1.7, 0, 9, 0.1, ·, -19
- C/C(=C\C(=O)C(F)(F)F)Nc1ccc(C)cc1
→ -3.0, 3, 6, 0.0, -0.4%, -5
- C[C@H](CO)N1C[C@H](C)[C@@H](CN(C)S(C)(=O)=O)Oc2ccc(NC(=O)C3CCCCC3)cc2C1=O
→ 2.4, -5, -23, -0.2, -0.1%, 0
- COc1ccc(/C=N/NS(=O)(=O)c2ccc(F)cc2)cc1CN1CCSCC1
→ 0.8, -5, -16, -0.5, 0.9%, -7
- O=C(O)c1[nH]c2ccccc2c1C(c1cc(Cl)cc([N+](=O)[O-])c1O)c1c(C(=O)O)[nH]c2ccccc12
→ -6.6, ?, -8, -0.2, 0.4%, -13
- COc1ccc(CNC(=O)[C@@H]2CC=C[C@@H]3CCN(C4CCCCC4)C(=O)[C@@H]32)cc1
→ 0.2, 0, ·, 0.4&-1.4, -1.0%, -5
- CN(Cc1ccccc1)C(=O)c1[nH]cnc1C(=O)NCC(=O)OC(C)(C)C
→ -3.8, 3, 3, -0.7, -0.4%, -12
- CCCCNC(=O)CCn1c(=O)c2ccccc2n(CC(=O)NCCc2ccc(OC)c(OC)c2)c1=O
→ -2.3, 4, -10, 0.2, 1.2%, -7

# Five compounds from above, reduced to PINK1 expr mod and CtBP-E1A blk.
Molecule | PINK1 expr mod | CtBP-E1A blk
CCc1c(O)nc(SCC(=O)Nc2ccc(C)cc2)n(C2CCCCC2)c1=O | · | 9
C/C(=C\C(=O)C(F)(F)F)Nc1ccc(C)cc1 | -0.4% | 6
C[C@H](CO)N1C[C@H](C)[C@@H](CN(C)S(C)(=O)=O)Oc2ccc(NC(=O)C3CCCCC3)cc2C1=O | -0.1% | -23
COc1ccc(/C=N/NS(=O)(=O)c2ccc(F)cc2)cc1CN1CCSCC1 | 0.9% | -16
O=C(O)c1[nH]c2ccccc2c1C(c1cc(Cl)cc([N+](=O)[O-])c1O)c1c(C(=O)O)[nH]c2ccccc12 | 0.4% | -8

# Next results:
# Below each compound: D2 ag, Six1-Eya2 inh, CtBP-E1A blk, TRPML1 agonist, PINK1 expr mod, D2 potentiator
- COc1ccc(S(C)(=O)=O)cc1S(C)(=O)=O
→ 0.9, 2, 9, -0.1, 3.8%[38.3 µM], 6
- CC1Cc2ccccc2N1C(=O)Cn1c(=O)oc2cc(S(=O)(=O)N3CCCCC3)ccc21 (configuration not stated)
→ -2.1, -3, -1, 0.5, 1.2%, -7
- Cc1ccc(-n2nnnc2-c2cnn(-c3ccc(F)cc3)c2C(F)(F)F)cc1
→ -2.3, 3, 4, -0.2, 2.8%, -7
- O=C(C[n+]1ccc(-c2nnc3n2CCC3)cc1)c1ccc(Cl)c(Cl)c1
→ -4.9, -8, 7, -0.1, 1.3%, -14
- O=C(NC1CCCC1)c1cc(-c2ccccc2O)on1
→ -5.8, 8, -1, -0.6, 2.6%, -7
- CCC1(Cc2ccccc2)NC(=O)c2ccccc2O1 (configuration not stated)
→ -4.2, 0, -7, 0.3, 0.3%, -1
- Cc1ccc(S(=O)(=O)N2CCCC2C(=O)NCCc2ccccc2)cc1 (configuration not stated)
→ 2.3, 1, 1, 0.5, 1.1%, -1
- OCCc1c[nH]c2ccc(C(F)(F)F)cc12
→ -4.7, -4, -1, -0.4, -0.6%, -3
- Nc1nnc(SCC(=O)Nc2cccc(S(=O)(=O)N3CCOCC3)c2)s1
→ -4.2, 2, 0, -0.1, -0.5%, -3
- CC(NC(=O)Cc1ccc([N+](=O)[O-])cc1)c1ccc2c(c1)OCO2 (configuration not stated)
→ -5.6, -6, 3, 1.0, 0.3%, -6
- O=C(NCCS(=O)(=O)N1CCN(c2cccc(Cl)c2)CC1)c1ccco1
→ -1.5, -4, 0, 0.0, 1.3%, -14
- Nc1cc(=O)[nH]c(SCC(=O)NC2CCCc3ccccc32)n1 (configuration not stated)
→ -5.2, 3, ·, -0.2, 0.1%, -18
- CCN(CC)c1ccc(/C=N/N2CCN(Cc3ccccc3Cl)CC2)cc1
→ -0.5, -74*, -27, 0.4, 3.0%, -22
- COc1ccc(Cl)cc1NC(=O)CN(C)C1CCS(=O)(=O)C1 (configuration not stated)
→ -3.6, -5, ·, -0.7, 0.8%, -3
- COc1ccc(Br)cc1CN(C)C(=O)CNC(=O)c1ccc2ccccc2c1
→ -1.0, -22, 0, 0.1, 0.0%, -10
- COc1cccc(NC(=O)C(=O)N/N=C/c2ccc3c(c2)OCO3)c1
→ -6.5, 3, 7, -0.2, 4.3%, -17
- O=C(CSCc1c(F)cccc1Cl)Nc1cccnc1
→ -2.2, 7, 2, 0.8, -0.8%, -5
- O=C1CSC(c2ccc(F)cc2)N1c1c(F)cccc1F (configuration not stated)
→ -2.8, -5, -1, 1.9, 3.3%, -8
- C=CCNc1nc2c(c(=O)[nH]c(=O)n2C)n1CCOc1ccccc1
→ 2.0, -5, -4, -0.2, 4.2%, 1
- OCCc1ccc(O)cc1
→ -4.7, 0, 2, 0.2, 1.2%, 2

# More records follow:
# Below each compound: D2 ag, Six1-Eya2 inh, CtBP-E1A blk, TRPML1 agonist, PINK1 expr mod, D2 potentiator
- O=C(Nc1ccc(O)cc1)c1ccc2c(c1)C(=O)N(Cc1cccnc1)C2=O
→ 2.1, 2, 1, 0.7, ?, 0
- CCCC(=O)Nc1ccc(C(=O)N/N=C/c2ccc([N+](=O)[O-])o2)cc1
→ 11, 2, 3, 0.0, ?, 22
- O=C(c1ccc(Cn2cc(Br)cn2)o1)n1cccn1
→ -2.1, -3, -14, -0.5, 6.7%[38.3 µM], -6
- CCOc1ccc(NS(=O)(=O)c2ccc(C(=O)N(C)CC(=O)Nc3ccc(OC)cc3)cc2)cc1
→ -3.6, -1, -11, -0.3, 5.3%, -1
- CCOC(=O)c1cc2c(nc1N)CC(C)(CC)OC2 (configuration not stated)
→ -1.2, 10, -3, -0.8, 1.0%, 16
- CC1CCCCC1NC(=O)COn1nnc2ccc(Cl)cc21 (configuration not stated)
→ -2.6, -1, 9, 1.1, -1.2%, -2
- O=[N+]([O-])c1cc2c(c([N+](=O)[O-])c1)Nc1ccccc1O2
→ 1.6, ?, ?, 0.1, 14µM*, -14
- Cc1ccc(S(=O)(=O)N(C)CC(=O)N2CCN(c3ccccn3)CC2)cc1
→ -4.4, 2, 5, 0.1, 0.0%, 4
- CCCCN(C)CCN1C(=O)C2C(C(=O)Nc3ccc(OC)cc3)C3C=CC2(O3)C1C(=O)NC1CCCCC1 (configuration not stated)
→ -0.7, 13, 0, 0.1, -0.5%, -10
- CCC1(CC)Cc2ccccc2-c2nc(CCl)[nH]c(=O)c21
→ -1.5, 4, ·, 1.7, 1.3%, -7
- CCNc1nc(Oc2ccc(C(=O)OC)cc2)nc(N(C)C)n1
→ 0.8, 0, 8, -0.7, -0.8%, 10
- Cc1cc(F)ccc1-c1cc(C(=O)Nc2ccc(F)cc2)[nH]n1
→ 7.4, 3, 1, -0.1, 5.1%, -18
- COc1ccc(/C=C/CN2CCC(CO)(Cc3ccccc3Cl)CC2)cc1
→ 0.7, -9, -9, 0.4, 4.8%, -25
- COc1ccc(NC(=O)C(=O)N2N=C(C(C)C)CC2(O)C(F)(F)F)cc1 (configuration not stated)
→ -1.7, 2, 12, -0.5, ·, -3
- N=c1c2c(-c3ccccc3)c(-c3ccccc3)oc2ncn1CCN1CCOCC1
→ 0.1, -7, -6, 4.3, -3.0%, -18
- C(=N\Nc1nc(N2CCCC2)nc(N2CCCC2)n1)/c1ccccc1OCc1ccccc1
→ -2.7, -3, -22, 1.5, ?, 0
- Cc1cc(NC(=O)CSc2nccn2C)no1
→ -1.9, -6, -26, 0.4, -0.8%, -6
- O=C(CS(=O)c1ccc(C(F)(F)F)cc1[N+](=O)[O-])Oc1ccccc1 (configuration not stated)
→ 4.6, -2, -2, -1.0, -3.1%, 21
- COc1ccc(NC(=O)C2CCN(S(=O)(=O)c3c(C)noc3C)CC2)cc1
→ 1.9, -1, 6, -0.4, 4.0%, -7

# Whole records from above. Order of screens: D2 ag	Six1-Eya2 inh	CtBP-E1A blk	TRPML1 agonist	PINK1 expr mod	D2 potentiator
# Listed for `O=C(CS(=O)c1ccc(C(F)(F)F)cc1[N+](=O)[O-])Oc1ccccc1` (configuration not stated) → 4.6	-2	-2	-1.0	-3.1%	21
# Listed for `CCOC(=O)c1cc2c(nc1N)CC(C)(CC)OC2` (configuration not stated) → -1.2	10	-3	-0.8	1.0%	16

# Shown as tab-separated lines: 2 of the compounds above.
compound	D2 ag	Six1-Eya2 inh	CtBP-E1A blk	TRPML1 agonist	PINK1 expr mod	D2 potentiator
C(=N\Nc1nc(N2CCCC2)nc(N2CCCC2)n1)/c1ccccc1OCc1ccccc1	-2.7	-3	-22	1.5	?	0
COc1ccc(/C=C/CN2CCC(CO)(Cc3ccccc3Cl)CC2)cc1	0.7	-9	-9	0.4	4.8%	-25

# From PubChem
